Bioassay records from PubChem BioAssay.
Prx2 Sm inh = Schistosoma mansoni Prx2 inhibition; S. mansoni Prx2 activity coupled to TGR/GSH (TGR is thioredoxin glutathione reductase), NADPH fluorescence loss, qHTS; some inactives read as strong as hits; Potency, µM; hit rate 0.07% among 65,000; AID 448; active means full or partial inhibition curve with a strong effect at the top dose; inconclusive means weaker partial or single-point curve; inactive means no accepted curve; also: series up to 57 µM; many of its hits are not listed in these tables
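Prx2 inhibition was measured as reduced NADPH consumption when electrons flowed from NADPH through TGR and glutathione to Prx2 and H2O2. Plates were read kinetically over 8 min; enzyme reagents were held at 4 deg C during dispensing.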
LT uptake inh = inhibitors of anthrax lethal toxin internalization; Potency, µM (doses to about 40 µM), for inactives: top-dose activity change, negative = inhibition, usual class: inhibitors; hit rate 0.67% among 70,000; Cells, anthrax lethal toxin internalization, FRET ratio (460/530); active = well fitted falling ratio curve with the 530 nm signal flat; inconclusive = other ratio curves, or a change in one channel alone; inactive = flat curves in the ratio and both channels; the % refers to the ratio; also: % is scaled to controls: 0 for no effect and ±100 for the full control effect; nearly all actives have a fitted effect of over 50% in size; tested in ME-180 cells; beta-lactamase reporter
Numbers without * were called inactive; ? = inconclusive; / = no result given; & = joins results of further samples; [ ] = another dose, or the depositor's remark. Potency is read from the fitted curve at half-maximal effect. The list is partial. The share of hits here may be higher or lower than overall.

SMILES	Prx2 Sm inh	LT uptake inh
CC(=O)Nc1cc(OC(=O)c2ccco2)cc(OC(=O)c2ccco2)c1	?	-23%
O=C(NCC(=O)N(c1cccnc1)C(C(=O)NC1CCCC1)c1ccco1)c1cccs1 (configuration not stated)	>57	-12%
CCc1ccc(NC(=O)C2CCN(S(C)(=O)=O)CC2)cc1	>57	-2%
CCCCCCN(C(=O)CCCCCN1C(=O)NC(c2ccc(C3CCCCC3)cc2)C(C(=O)OCc2ccccc2)=C1C)C(C(=O)NCCCC)c1ccc(OCC(=O)OC)c(C(=O)OC)c1 (configuration not stated)	/	-4%
Cc1cc(N2CCN(c3ccccc3)CC2)n2nnnc2n1	>57	-4%
CCN1C(=O)N(C)C(N(O)C(=O)NC)C1(C)C (configuration not stated)	>57	?
O=C(C1CCCN(S(=O)(=O)c2cccs2)C1)N1CCN(C2CCCCC2)CC1 (configuration not stated)	>57	-1%
O=C(c1cccc(F)c1)N1CCC2(CC1)CN(c1cccc(-c3ccccc3)c1)C2	>11	?
Cc1noc(C)c1-c1nccc(NCCN2CCOCC2)n1	>57	2%
CCCC(c1nnnn1CS(=O)(=O)c1ccc(C)cc1)N1CCN(c2ccc(F)cc2)CC1 (configuration not stated)	>57	-6%

Taken from above.
CC(=O)Nc1cc(OC(=O)c2ccco2)cc(OC(=O)c2ccco2)c1 – LT uptake inh: -23%
O=C(NCC(=O)N(c1cccnc1)C(C(=O)NC1CCCC1)c1ccco1)c1cccs1 (configuration not stated) – LT uptake inh: -12%

Following part:
SMILES	Prx2 Sm inh	LT uptake inh
COc1ccc(-c2nc(CSCC(=O)N3CCC(C(N)=O)CC3)c(C)o2)cc1OC	>57	6%
O=C(O)/C=C\C(=O)Nc1ccccn1	>57	-10%[8 µM]
COc1ccccc1-n1cnnc1SCC(=O)Nc1cc(C(C)(C)C)nn1-c1ccccc1	>57	?
C=C(C)CSCc1nc2ccccc2[nH]1	>57	1%
COCCn1c(=O)c(-c2cccc(C#N)c2)nc2cnc(OCc3ccccc3)nc21	>57	?
CN1CCN(C(=O)COc2ccc(C(C)(C)C)cc2Br)CC1	>57	-12%
Cc1nc2ccccc2n1CCC(=O)Nc1cccc(F)c1	>57	4%
O=C(NCc1ccco1)c1cc2c(s1)CCCCC2	>57	-18%
O=C(O)CCc1ccc(-c2ccccc2)n1Cc1ccco1	>57	-20%
CC(=O)N1CCC(C(=O)Nc2ccccc2)(N(Cc2ccccc2)C(=O)c2cccnc2)CC1	>57	7%

Pulled one by one from above:
SMILES	Prx2 Sm inh	LT uptake inh
CN1CCN(C(=O)COc2ccc(C(C)(C)C)cc2Br)CC1	>57	-12%
CC(=O)N1CCC(C(=O)Nc2ccccc2)(N(Cc2ccccc2)C(=O)c2cccnc2)CC1	>57	7%
Cc1nc2ccccc2n1CCC(=O)Nc1cccc(F)c1	>57	4%
COc1ccc(-c2nc(CSCC(=O)N3CCC(C(N)=O)CC3)c(C)o2)cc1OC	>57	6%
COc1ccccc1-n1cnnc1SCC(=O)Nc1cc(C(C)(C)C)nn1-c1ccccc1	>57	?
C=C(C)CSCc1nc2ccccc2[nH]1	>57	1%
O=C(O)CCc1ccc(-c2ccccc2)n1Cc1ccco1	>57	-20%

The listing picks up with the 2 entries that preceded the break.
SMILES	Prx2 Sm inh	LT uptake inh
O=C(O)CCc1ccc(-c2ccccc2)n1Cc1ccco1	>57	-20%
CC(=O)N1CCC(C(=O)Nc2ccccc2)(N(Cc2ccccc2)C(=O)c2cccnc2)CC1	>57	7%
N#Cc1cc2cc3c(cc2nc1N1CCOCC1)OCO3	>57	10%
O=[N+]([O-])CCO	/	-9%
O=c1c2ccccc2nc2n1CCS2	>57	-5%
COc1cccc(Cn2c(=O)c(-c3ccc(Cl)cc3)nc3cncnc32)c1	>57	?
CCN(CC)CCNC(=O)C1c2ccccc2C(=O)N(C)C1c1cn(C)c2ccccc12 (configuration not stated)	>57	5%
CCOC(=O)N1CCN(C(=O)c2ccc(CNS(=O)(=O)c3ccc(C)cc3)cc2)CC1	>57	13%
O=C(NCC1CCS(=O)(=O)C1)Oc1ccccc1 (configuration not stated)	>57	?
O=S(=O)(c1ccccc1)N1CCC2(CCCN(c3ccccc3)C2)CC1	>57	?
Cn1nc(-c2ccc(N3CCOCC3)c(NC(=O)c3ccccc3)c2)c2ccccc2c1=O	>57	?
CS(=O)(=O)N(CCc1ccccc1)CC(=O)NCc1ccccn1	>57	-1%
N#CC(C(=O)c1ccc(S(=O)(=O)N2CCCCCC2)cc1)c1nc2ccccc2[nH]1 (configuration not stated)	>57	?
CCOc1ccccc1-n1c(SCC(=O)NC2CCCC2)nnc1-c1ccoc1C	>57	-12%
O=C(OCn1nnc2ccccc2c1=O)c1ccc2ncsc2c1	>57	0%
CC(C)Oc1ccc(C(CC(=O)O)NC(=O)C2CCCCC2)cc1 (configuration not stated)	>57	5%
CC(Oc1ccc(Cl)cc1Cl)C(=O)NCCN1CCOCC1 (configuration not stated)	/	?
CC(=O)N1CCc2ccc(C(=O)CN3CCN(c4cccc(C)c4C)CC3)cc21	>57	/
Cc1ccc2[nH]c(=O)c(CN(CCCO)S(=O)(=O)c3c(C)ccc4nsnc34)cc2c1	>57	-5%
Cn1c(SCC(=O)Nc2sc3c(c2C#N)CCC3)nnc1C1COc2ccccc2O1 (configuration not stated)	>57	7%
COc1ccccc1-c1ccc(=O)n(CC(=O)NCc2ccc3c(c2)OCO3)n1	>57	15%
O=C(c1ccco1)N1CCN(CC(=O)N2CCCc3c2c(=O)oc2ccc(O)cc32)CC1	>57	22%
Cc1nn(-c2ccccc2)c2[nH]c(=O)c(CNc3ccc4c(c3)OCCO4)cc12	>57	0%
Nc1[nH]nc2nc(N3CCCC3)nc(-c3ccccc3)c12	>57	0%
COc1ccc(C(=O)N2CCC3(CCCN(Cc4ccc(C#N)cc4)C3)CC2)cc1	>57	26%
Cc1nn(-c2nc3ccccc3s2)c(N)c1Sc1ccc(F)cc1	>57	-9%
CCOC(=O)CN1C(=O)C(CC)Oc2ccccc21 (configuration not stated)	>57	6%
Cc1cc(NC(=O)c2cnn3cccnc23)nn1CC(=O)Nc1cccnc1	>57	1%
N#CCSCC(=O)Nc1ccc(F)cc1	>57	1%
O=S(=O)(NC1=NCCC1)c1cccs1	>57	-20%
Cc1cccc(-n2ncc3c(NCCCn4ccnc4)ncnc32)c1	>57	1%
Cc1c2ccncc2c(C)c2c1[nH]c1ccccc12	>57&>57	5µM*

Structures above containing a furan ring, fused or not:
SMILES	Prx2 Sm inh	LT uptake inh
CC(=O)Nc1cc(OC(=O)c2ccco2)cc(OC(=O)c2ccco2)c1	?	-23%
O=C(NCC(=O)N(c1cccnc1)C(C(=O)NC1CCCC1)c1ccco1)c1cccs1 (configuration not stated)	>57	-12%
O=C(NCc1ccco1)c1cc2c(s1)CCCCC2	>57	-18%
O=C(O)CCc1ccc(-c2ccccc2)n1Cc1ccco1	>57	-20%
CCOc1ccccc1-n1c(SCC(=O)NC2CCCC2)nnc1-c1ccoc1C	>57	-12%
O=C(c1ccco1)N1CCN(CC(=O)N2CCCc3c2c(=O)oc2ccc(O)cc32)CC1	>57	22%

Continuation:
SMILES	Prx2 Sm inh	LT uptake inh
O=[N+]([O-])/C=C\c1cc2ccccc2[nH]1	>57	-2%[8 µM]
CCS(=O)(=O)n1nc(-c2ccccc2)nc1N	>57	-1%
Cc1ccc(NC(=O)CSc2nnc(CSc3nc(C)cc(C)n3)n2Cc2ccco2)c(C)c1	>57	-4%
O=C(c1ccncc1)N1CCC2(CCN(Cc3ccccc3)CC2)CC1	>57	?
O=C(COC(=O)c1ccccc1NC(=O)c1ccco1)NCCC1=CCCCC1	>57	2%
CCOC(=O)C1=C(c2ccccc2)NC(SCC(=O)Nc2ccc(C)cc2)=C(C#N)C1c1ccco1 (configuration not stated)	>57	-28%
COc1cccc(Cn2c(=O)c(C)nc3cnc(N4CCOCC4)nc32)c1	>57	6%
COc1ccc(NC(=O)c2cc(Cl)ccc2NC(=O)c2ccco2)c(OC)c1	>57	8%
CN1C(=O)C(O)(CC(=O)c2ccccn2)c2cc(Br)ccc21 (configuration not stated)	>57	?
Cc1cccc(N(C)C(=S)Oc2ccc3ccccc3c2)c1	>11	?
C=C(C)CSc1nnc2[nH]c(=O)cc(N)n12	>57	-6%
CCN(CC(N)=O)S(=O)(=O)c1ccc(Br)cc1	>57	5%
CCN(CC)S(=O)(=O)c1cc(Br)ccc1OC	>57	-6%
Cc1cc(NS(=O)(=O)c2ccc(NC(=O)Nc3ccc4c(c3)OCO4)cc2)no1	>57	?
CC(=O)c1ccc(C(C)(C)c2ccc(C(C)=O)s2)s1	>57	/
CCNc1ncc2nc(-c3ccc(OC)cc3)c(=O)n(CCOC)c2n1	>57	?
CN1CCN(c2ccccc2NC(=O)c2cccc(OCc3ccccc3)c2)CC1	>57	?
CCCCCn1c(CN2CCN(c3cc(Cl)ccc3C)CC2)nc2c1c(=O)[nH]c(=O)n2C	>57	-12%
OC[C@@H](O)COc1cccc2ccccc12	>57	?
